Assay outcomes as filed in PubChem.
Ba CapD inh: Bacillus anthracis CapD inhibitors, primary screen, biochemical, fluorescence intensity. CapD gamma-glutamyltranspeptidase (Bacillus anthracis Ames Ancestor). purified CapD enzyme, fluorescence intensity read-out; hits give low values; some hits fall short of the stated cut. z-score (no concentration beside the values). 140,000 compounds, 0.23% hits. AID 492967, 2010;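 active = z-score under -4 in either of two replicates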;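 also: stock transfer was 100 nL into about 40 µL; score is relative to mean and spread of the plate; one replicate is shown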
AID504770: growth inhibition of E. coli YBA685, primary screen, V. cholerae RctB inhibitors; E. coli YBA685 rctB-dependent plasmid, OD600 growth, 3 h; hits give low values; z-score (test concentration not listed); 130,000 compounds, 0.27% hits;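 active = z-score under -2 on both plates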;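 also: wells of about 30 µL received 100 nL stock; score is relative to mean and SD of the test wells; the first replicate is given; strong numbers were not always called active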
Active calls of the source: *; / = not tested or not shown.

structure	Ba CapD inh	AID504770
CNC(=O)NC(=O)C(Sc1nnc(-c2ccco2)n1Cc1ccccc1)c1ccccc1 (configuration not stated)	/	0.35
O=C(COC(=O)Cc1ccsc1)Nc1ccccc1	-0.02	-0.6
N#Cc1c(Cl)cccc1Oc1ccc(S(=O)(=O)NCc2cc(F)cc(F)c2)cc1	0.045	/
O=C(CSc1nc2ccccc2o1)C12CC3CC(CC(C3)C1)C2	/	-0.65
C/C(=C\C#N)n1nc(C)cc1N	-0.17	-0.55
Brc1ccc2[nH]cc(CNCCN3CCOCC3)c2c1	/	-2.2
C=CCN(c1ccc(OC)cc1)S(=O)(=O)c1cccc(C(=O)OC)c1	/	0.45
O=C(COC(=O)c1ccc2ccccc2n1)Nc1ccc(Cl)c(C(F)(F)F)c1	0.54	-0.3
CN(C)Cc1ccc2ccc3cccc4ccc1c2c34	93	-0.3
CCOC(=O)/C(=N\Nc1cccc(C(F)(F)F)c1)N1CCCC1	/	-0.65
CCc1nnc(SCC(=O)N(CC)c2cccc(C)c2)c2cc3occc3n12	0.58	1.6
COc1ccccc1C1=Nn2c(Cc3cccc4ccccc34)nnc2SC1	/	-0.6
COc1ccc(COC(=O)N/C=C/c2ccc(Cl)c(Cl)c2)cc1	-0.57	/
CCN(CC)CCNc1nc2c(c(=O)n(C)c(=O)n2C)n1Cc1ccc(F)cc1	-1.4	0.1
CCn1c(C)nc2cc(O)ccc21	0.13	1
CC(C)NC(=O)C(Sc1ccccc1)c1ccccc1 (configuration not stated)	/	-0.35
COCCNC(=O)CN1CCC(NC(=O)Nc2ccc(C(F)(F)F)cc2)CC1	/	-0.25
O=S(=O)(c1ccc(F)cc1)N1c2ccccc2OCC1c1ccccc1 (configuration not stated)	-0.71	/
c1ccc(CSc2nc(N3CCCC3)c3sc4ccccc4c3n2)cc1	0.77	/
CN(c1ccccc1)S(=O)(=O)c1ccc(N2CCCCS2(=O)=O)cc1	4.4	-0.6
CSc1[nH]c(=O)[nH]c(=O)c1C#N	9.6	0.2
c1coc(-c2ncc3ccccn23)c1	4.7	-0.9
COc1ccccc1NC(=O)c1sc2ncn(CC(=O)Nc3cccc(C(F)(F)F)c3)c(=O)c2c1C	0.12	/
COC(=O)c1sccc1N(Cc1ccccc1)S(C)(=O)=O	0.33	0.55
c1ccc(Cn2c3ccccc3c3nnc(SCc4ccc5nonc5c4)nc32)cc1	0.1	0.15
Cc1nc2sccn2c1C(=S)NC(=O)c1ccccc1F	/	0.2
Cc1occc1-c1nnc(SC(C)C(=O)NC2CCCc3ccccc32)n1-c1ccccc1 (configuration not stated)	/	0.4
CC(C)(C)S(=O)(=O)Cc1noc(-c2ccc(F)cc2Cl)n1	1.3	0.2
CCOc1cccc(N2C(=O)/C(=C\c3cc(Br)c(O)c(OC)c3)C(=O)NC2=S)c1	-1.7	/
O=C(Cn1ccc(=O)[nH]c1=O)Oc1ccc(Br)cc1Cl	/	-0.9
Cc1ccc2c(c1)N(C(=O)N1CCC(C(=O)N3CCCCCC3)CC1)CC(C)O2 (configuration not stated)	-0.7	-0.75
OCCNc1nc2ccccc2nc1NCCO	89	-1.6
CN(Cc1ccccc1)C1(O)C(=O)Nc2c(C(F)(F)F)cccc21 (configuration not stated)	-0.25	-0.15
N#CC1=C(N)OC2=C(C(=O)CC(c3ccccc3)C2)C1c1cn[nH]c1-c1ccc(F)cc1 (configuration not stated)	-0.24	/
O=C(Nc1ccc(N2CCOCC2)cc1)c1n[nH]c(=O)c2ccccc12	/	-0.45
O=[N+]([O-])c1ccc(NCCNS(=O)(=O)c2cc(C(F)(F)F)cc(C(F)(F)F)c2)nc1	-0.86	/
O=C1c2cccc3c(N4CCCC4)ccc(c23)C(=O)N1c1ccccc1	/	-0.65
COc1ccc2c(c1)OCC1=C2CCC2(C)C(=O)CC=C12 (configuration not stated)	48	0.85
Cc1ccc(/C=N/NC(=O)CNc2cccc(C(F)(F)F)c2)o1	/	-0.15
O=C(c1cc2c(s1)CCC2)N(CCO)Cc1ccccc1	0.43	0.4
NC(N)=N/N=C/c1ccc2c(c1)OCO2	2.7	-0.3
COCC(C)NC(=O)c1ccc(OC(C)=O)cc1 (configuration not stated)	0.28	-0.55
O=C(NCCN1CCOCC1)c1cc(NS(=O)(=O)c2cccs2)cc(NS(=O)(=O)c2cccs2)c1	/	-1.8
c1ccc2c(c1)oc1c(NC3CCCC3)ncnc12	/	0.65
CN1CC=C2C(C#N)=C(N)C(C#N)(C#N)C(Cc3ccccc3)C2C1 (configuration not stated)	/	-0.45
O=C(O)/C=C/c1ccc(-c2ccccc2)s1	/	-0.7
COc1cc(C(=O)NC(C(C)C)C(C)C)cc(OC)c1OC	0.12	-0.45
O=C(COc1ccccc1)ON1C(=O)CCC1=O	0.17	0.35
CCOc1cccc2cc(C(=O)Nc3cccc(C)c3)c(=Nc3ccc(C(=O)O)cc3)oc12	0.21	/
Cc1nn(CC(=O)N2CCC(C)CC2)c(C)c1S(=O)(=O)N1CCOCC1	/	-0.15
N#CCc1ccc(OCc2cc(C(F)(F)F)cc(C(F)(F)F)c2)cc1	0.69	-0.75
COc1ccc(-n2cnnc2SCC(=O)N2CCN(S(=O)(=O)c3ccccc3)CC2)cc1	/	0.15
CCSc1nc(N)c(C#N)c(-c2ccco2)c1C#N	7.2	-0.1
CCOC(=O)C1CCCN(c2nc3ccccc3nc2C(C#N)C(=O)OC)C1 (configuration not stated)	/	0.45
C=CCOC(=O)c1sc(N2CCCC2=O)c(C(=O)OCC)c1C	/	-0.4
Cc1[nH]c(=O)[nH]c(=O)c1S(=O)(=O)N1CCC(C(=O)NC(C)c2ccccc2)CC1 (configuration not stated)	0.43	-0.4

Following part:
structure	Ba CapD inh	AID504770
CCc1ccc2oc(-c3ccc(NC(=O)c4ccc5c(c4)OCCO5)cc3)nc2c1	11	/
Cc1cc2c(cc1C)C(c1ccc(OC(F)(F)F)cc1)CC(=O)N2 (configuration not stated)	-0.27	/
CCOC(=O)N1CCc2c(sc3c2c(=O)n(-c2ccc(CC)cc2)c(=O)n3CC(=O)NCC2CCCO2)C1 (configuration not stated)	-0.8	-0.55
COc1ccc(C(=O)O/N=C2\CCS(=O)(=O)c3sccc32)cc1	0.52	/
O=C1CCC(C(=O)NCCc2ccc(Cl)cc2)=NN1	/	-0.75
CC(C)CC(=O)n1c(=O)oc2ccccc21	-0.79	2.6
COc1ccccc1NC(=O)C(C)SC1CCCC1 (configuration not stated)	/	-0.5
Nc1nc(SCc2ccccc2)n[nH]1	-0.22	-0.3
OCc1nc2ccccc2n1Cc1ccccc1Cl	/	-0.55
COc1ccc(C2C(C(=O)O)CC(=O)N2c2ccc(OC)cc2)cc1 (configuration not stated)	-0.05	-0.4
O=C(NCCc1ccccc1)N1CCn2cccc2C1c1ccccc1 (configuration not stated)	/	-0.55
CCn1c(-c2ccc(OC)cc2)csc1=Nc1ccc(NC(C)=O)cc1	/	1.2
CC1(C)CC(=O)C2=C(C1)Nc1cc(C(=O)c3ccccc3)ccc1NC2c1ccc([N+](=O)[O-])cc1 (configuration not stated)	0.83	/
CCOC(=O)c1noc2ncnc(NCCc3ccccc3)c12	0.37	-0.3
Cc1cc(OCC(F)(F)C(F)(F)C(F)(F)C(F)F)nc(N)n1	/	0.05
O=C(NCc1cn2ccccc2n1)c1ccccc1F	/	0.05
Cc1ccc(-c2onc3ccc(C(=O)NCCO)cc23)cc1	-0.4	-1.1
CCOc1ccc(NC(C)C(=O)N/N=C/c2ccc(N(C)C)cc2)cc1 (configuration not stated)	20	1.5
COC(=O)c1ccc(-n2cccc2)cc1	/	1.2
CCn1c(CCCCCCN)nnc1SC	/	-0.2
Nc1n[nH]c(=O)c2cc(-c3ccc(Cl)cc3)[nH]c(=O)c12	0.61	0.9
CS(=O)(=O)N1CCNCC1	/	-0.9
O=C(Nc1ccccc1C(=O)NCCN1CCOCC1)c1ccc(Br)cc1	-0.56	0.25
N#Cc1ccc(-c2c(N)oc(-c3cccs3)c2C#N)cc1	6.3	0.75
O=C(c1ccc(S(=O)(=O)N2CCCCC2)cc1)N1CCN(Cc2ccc3c(c2)OCO3)CC1	0.31	-0.35
C=CCOc1ccc(NC(=O)c2cccs2)cc1	-0.85	2.2
CCNS(=O)(=O)c1ccc(CCC(=O)NCc2ccco2)cc1	-0.01	-0.65
N#Cc1c(/N=C/c2ccccc2)sc2c1CCCC2	-0.12	0.45
Cc1nc(-c2sc3ccc(Cl)cc3c2C)cs1	2.3	1.1
Cc1c2c(cc3c4c(c(=O)oc13)CCCC4)CN(CCc1ccc(F)cc1)CO2	11	-0.45
Cc1ccc(C(=O)N/C(=C\c2ccco2)C(=O)NCCCn2ccnc2)cc1C	-0.62	/
CC(C#N)Oc1ccc(C(=O)c2ccccc2)cc1 (configuration not stated)	/	1.6
Cc1cc(C)c(NC(=O)CCCN2CCCC2)c(C)c1	/	1.5
CCOC(=O)c1ccc(N=Cc2c(O)cc(C)oc2=O)cc1	-0.13	0
CCOc1nc(Nc2ccc(OC)cc2)nc(N2CCOCC2)n1	/	-0.2
CC(C)(C)C1=NN(c2ccccc2)C(=O)C1	0.42	/
C=CCn1c(=O)n(CC=C)c(=O)n(CC(=O)NC(C)COC)c1=O (configuration not stated)	/	0.05
COC(=O)c1cc(Nc2ncnc3c2cnn3-c2ccc(C)cc2C)cc(C(=O)OC)c1	0.33	/
CCOC(=O)N1CCc2c(sc(NC(=O)CN3CCc4ccccc43)c2C#N)C1	-0.07	-0.4
CCN(CC)C(=O)c1cc(-c2ccc(O)cc2)on1	-1.1	-0.7
C=C(Br)Cn1c(C(C)C)nc2ccccc21	-0.11	-0.3
S=C(NCc1ccco1)NCc1cccs1	/	-0.15
O=C(Cn1ncc2c([nH]c3ccccc32)c1=O)N(Cc1ccco1)C1CCCC1	2.5	0.7
CCn1cc(C(=O)N2CCCCCC2)c(=O)c2cc(S(=O)(=O)N3CCCCC3)ccc21	-0.13	0.5
CC(C)=NNc1nc2ccccc2[nH]1	/	-0.9
O=C1C2C(C(=O)N1c1ccccc1)C(c1cccc(Cl)c1)N1CSCC21 (configuration not stated)	0.11	/
CC(C)C(=O)OCC(=O)Nc1ccc2c(c1)CCC2	/	0.15
Nc1c(C(=O)Nc2ccccc2)oc2ccccc12	68	/
Cc1cc(C(=O)Nc2sc(C)c(C)c2C#N)cs1	0.32	-0.75
O=C1C(C=Nc2ccccc2)=C(O)c2ccccc21	-0.47	-0.3
O=C(O)CC(C(=O)O)c1ccc(F)cc1 (configuration not stated)	0.28	-0.45
CC(CC(=O)NCc1ccccc1)C1CCCO1 (configuration not stated)	0.015	0.05
CCOC(=O)c1ccc(N2C(=O)C(C)S(=O)(=O)C2c2ccccc2)cc1 (configuration not stated)	-0.39	/
O=C(NCCC(=O)N1CCCC1)Nc1ccc(Cl)c(Cl)c1	/	-0.3
CCN1CCCC1CNc1nc2ccc(Cl)cc2n2cnnc12 (configuration not stated)	5.5	-0.2
COc1ccc2ccccc2c1S(=O)N1CCN(Cc2ccccc2)CC1 (configuration not stated)	-0.02	/

Further records.
structure	Ba CapD inh	AID504770
CCOc1ccc(NC(=O)c2cc3nc(-c4ccc5c(c4)OCO5)cc(C(F)(F)F)n3n2)cc1	-0.29	/
Cc1ccc(OCCOn2nnc3ccc(S(=O)(=O)N4CCOCC4)cc32)cc1	/	-0.55
O=C(O)COc1ccccc1S(=O)(=O)C(F)F	/	0.9
CC1(C)Cc2nc3sc(C(=O)NN)c(N)c3cc2CO1	/	-1.9
O=C(CCN1C(=O)/C(=C/c2ccc(Cl)cc2)SC1=S)Nc1cc([N+](=O)[O-])ccc1O	-0.12	/
COc1ccc(NC(=O)c2sc3nc(-c4cccs4)ccc3c2N)cc1OC	-0.32	-1.2
COc1ccc(CCNC(=O)C2COc3ccccc3O2)cc1 (configuration not stated)	/	-0.35
COc1ccccc1N1CC(C)(C)C(=O)N(C(=O)c2ccc(C)cc2)C1=S	0.38	2.5
O=C(/C=C/c1ccc(F)cc1)OCC(=O)c1ccccc1	-0.64	1.3
CCCSc1nnc2c(n1)OC(/C=C/c1ccc([N+](=O)[O-])o1)Nc1ccccc1-2 (configuration not stated)	-0.45	/
Cc1ccc(-c2nnn(Cc3nc(N)nc(N4CCOCC4)n3)n2)cc1	0.07	/
CCOC(=O)C1=C(C)N(Cc2ccc(Cl)cc2Cl)c2ccccc2S1	-0.28	/
Cc1ccc(-n2ncc3c(=O)n(CC(=O)NC4CCCCC4)cnc32)c(C)c1	/	-0.5
COc1ccccc1NC(=O)c1sc2ncn(CC(=O)N3CCN(c4ccccn4)CC3)c(=O)c2c1C	0.03	/
Cc1ccccc1N=Cc1sc2ccccc2c1O	-0.87	0.9
O=C(O)CONS(=O)(=O)c1ccc(F)cc1	/	-0.5
